Assay outcomes: PubChem, Broad Institute
A1 inhib: inducers of caspase activity in MEF A1-2A-BIM cells, primary screen, A1 inhibitor project, cell-based, CaspaseGlo luminescence | 0.51% of 21,000 active | caspase activation, % (no concentration beside the values) | caspase-Glo luminescence, 3 h; percent of clofoctol signal, DMSO as zero;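 active means most replicate scores above 10, or exactly half above 10 with mean activity above 10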;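 further: effector caspase 3 and 7 activity cleaving a DEVD luciferin substrate; 50 nL library stock added to about 30 µL; numbers are from one replicate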
BJeLR viability: BJeLR cell viability loss, primary screen, luminescence, CellTiterGlo ATP; BJeLR fibroblasts viability, 48 h; HRASV12, hTERT and SV40 LT/ST transformed; viability loss activity score, % (concentration not given with the values); 0.64% of 30,000 active; in the data active means viability loss activity score above about 50%; about a fifth of its hits are not listed in these tables;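 further: higher score means fewer live cells and less ATP luminescence; stock transfer was 50 or 100 nL into about 30 µL; 0% = vehicle wells and 100% = a reference killing control; one replicate is shown; the record names a cut of 85%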
Active calls of the source: *; . = not tested or not shown. An excerpt (hit frequency here may not be typical).

SMILES | A1 inhib | BJeLR viability
C/C=C(/C)C(=O)O[C@H]1[C@H](OC(=O)/C(C)=C\C)[C@]2(CO)[C@H](O)C[C@]3(C)C(=CCC4[C@@]5(C)CC[C@H](OC6OC(C(=O)O)C(O)C(OC7OC(C)C(O)C(OC8OC(CO)C(O)C(O)C8O)C7O)C6O)C(C)(C)C5CC[C@]43C)[C@@H]2CC1(C)C (stereo not given in full) | -3.6 | 125*
Cc1ccc(S(=O)(=O)Nc2cccc3c2O[C@H](CN(C)S(=O)(=O)c2ccc(Cl)cc2)[C@@H](C)CN([C@H](C)CO)C3=O)cc1 | . | -2.7
COc1ccc(CN(C)C[C@@H]2Oc3ccc(NC(=O)c4ccncc4)cc3C(=O)N([C@@H](C)CO)C[C@H]2C)cc1 | 1.1 | 0.9
CCC(=O)N/C(N)=N/c1nc(C)c2ccccc2n1 | . | 10
COc1ccc(NC(=O)c2ccc(COc3ccc(C(C)C)cc3)o2)cc1 | . | -2.3
C[C@H](CO)N1C[C@H](C)[C@@H](CN(C)Cc2ccccc2)Oc2c(NC(=O)Nc3ccc(F)cc3)cccc2C1=O | . | -4.4
CCCSc1nnc(N)s1 | . | -0.8
O=C1NN=C(c2ccccc2)/C1=C1\OC(c2ccccc2)=CS1 | 0.2 | -1.0
CCOC(=O)c1cc(=O)c2ccc(OCc3ccccc3)cc2o1 | -1.7 | 3.2
C[C@H]1CN([C@@H](C)CO)C(=O)c2cc(NC(=O)Cn3cnnn3)ccc2O[C@@H]1CN(C)C | -0.3 | 4.1
COc1ccc(NC(=O)Nc2ccc3c(c2)C(=O)N([C@@H](C)CO)C[C@@H](C)[C@H](CN(C)S(=O)(=O)c2ccccc2)O3)cc1 | 0.1 | -1.1
CCC1(C)Oc2ccc(NC(=O)c3cc(F)c(F)cc3Cl)cc2O1 (stereo not given) | -0.8 | 2.1
Cc1ccccc1CSCCC(=O)NC1CCCCC1 | 1.3 | 15
C[C@@H]1CN([C@H](C)CO)C(=O)c2cccc(NS(=O)(=O)c3ccccc3)c2O[C@@H]1CN(C)CC1CC1 | . | 2.7
C[C@@H]1CN([C@@H](C)CO)C(=O)c2cccc(NS(=O)(=O)c3cn(C)cn3)c2O[C@H]1CN(C)Cc1ccc(Oc2ccccc2)cc1 | . | -6.3
Cc1ccc(SCc2cc(=O)[nH]c(SCC(=O)n3c4ccccc4c4ccccc43)n2)cc1 | 0.5 | 4.1
CNC[C@H]1Oc2ccc(N(C)C)cc2C(=O)N([C@@H](C)CO)C[C@H]1C | 0.6 | 2.0
C[C@@H]1CN([C@H](C)CO)C(=O)c2cc(NC(=O)Cc3cn(C)c4ccccc34)ccc2O[C@@H]1CN(C)S(=O)(=O)c1ccc(Cl)cc1 | -0.2 | -0.6
CCCNC(=O)c1cnn(-c2ccccc2)c1-n1cccc1 | 0.4 | -4.4
O=C(Cn1c(-c2cccs2)cc2ccccc21)N1CCCCC1 | 1.7 | -0.7
C[C@H]1CN([C@@H](C)CO)C(=O)c2cc(NS(=O)(=O)c3ccc(Cl)cc3)ccc2O[C@H]1CN(C)C(=O)Nc1ccc2c(c1)OCO2 | 0.5 | -4.2
CN(CCOC(=O)C1c2ccccc2Oc2ccccc21)Cc1ccccc1 | 1.2 | -6.2
CC1CN(C(=O)CCn2c(=O)oc3ccccc32)CC(C)O1 (stereo not given) | . | -1.1
C[C@H](CO)N1C[C@H](C)[C@H](CN(C)S(=O)(=O)c2ccc(Cl)cc2)Oc2ccc(NS(=O)(=O)c3ccc(F)cc3)cc2C1=O | -0.2 | -1.6
C[C@H](CO)N1C[C@H](C)[C@H](CN(C)S(=O)(=O)c2cn(C)cn2)Oc2c(NC(=O)c3nc4ccccc4s3)cccc2C1=O | . | 1.4
S=c1[nH]c2ccccc2n1Cc1ccccc1 | -0.6 | 0.7
C[C@@H]1CN([C@H](C)CO)C(=O)c2cccc(NC(=O)c3ccc(-c4nccs4)cc3)c2O[C@H]1CN(C)CC1CCCCC1 | . | -0.7
CC(C)(C)C(=O)OCc1nc(-c2ccc(Cl)cc2)cs1 | -2.9 | -3.5
Cc1cc(C(=O)Nc2cccc3c2O[C@H](CN(C)CC2CCCCC2)[C@@H](C)CN([C@H](C)CO)C3=O)n(C)n1 | . | 4.4
COc1cc2ccc(=O)oc2c(OC2OC(CO)C(O)C(O)C2O)c1O (stereo not given) | -0.5 | -3.4
CC(C)NC(=O)N(C)C[C@@H]1Oc2ccc(NC(=O)CCN3CCOCC3)cc2C(=O)N([C@@H](C)CO)C[C@H]1C | -0.3 | 0.5
CNC(=O)NC(=O)Cn1cnc2sc(-c3ccccc3)cc2c1=O | -1.0 | 7.8
O=C1S/C(=C/c2ccccc2)C(=O)N1CC(O)Cn1c2ccccc2c2ccccc21 (stereo not given) | -0.8 | -0.7
CC(C)OC(=O)n1c(=S)oc2ccccc21 | -0.5 | -3.5
FC(F)(F)c1cc(NC(=S)NC2CCCCC2)cc(C(F)(F)F)c1 | -0.3 | 20
CCOC(=O)CNc1nc2ccc(C)cc2n2cnnc12 | . | -0.2
COc1ccc(-c2nc(CNS(=O)(=O)c3ccc(NC(C)=O)cc3)cs2)cc1 | -0.2 | -2.0
COc1ccc(-c2nc3c4cnn(-c5cccc(C)c5)c4ncn3n2)cc1 | 1.4 | 2.3
C[C@@H]1CN([C@@H](C)CO)C(=O)c2cc(NS(=O)(=O)c3cn(C)cn3)ccc2O[C@H]1CN(C)C | 0.6 | 0.7
C[C@H](CO)N1C[C@H](C)[C@@H](CN(C)Cc2ccc(Oc3ccccc3)cc2)Oc2ccc(NS(=O)(=O)c3ccccc3)cc2C1=O | 0.2 | -6.9
C[C@@H]1CN([C@H](C)CO)C(=O)c2cccc(NC(=O)C3CCOCC3)c2O[C@H]1CN(C)C | . | 4.0
FC(F)(F)c1cccc(NC(=S)N2CCn3cccc3C2c2cccnc2)c1 (stereo not given) | 0.7 | 3.7
FC(F)(F)c1cc(-c2ccccc2)nc(N2CCCC2)n1 | . | -2.8
COc1ccc(S(=O)(=O)N(C)C[C@H]2Oc3c(NC(=O)C4CC4)cccc3C(=O)N([C@H](C)CO)C[C@@H]2C)cc1 | . | -1.4
C(=N\n1nnnc1Nc1ccccc1)/c1ccc(OCc2ccccc2)cc1 | . | 1.4
Cc1ccc(S(=O)(=O)Nc2ccc3c(c2)C(=O)N([C@H](C)CO)C[C@H](C)[C@@H](CN(C)Cc2ccc(-c4ccccc4)cc2)O3)cc1 | 0.1 | 0.6
Cc1cccc(NC(=O)Cn2c(=O)n(CCC(=O)NCc3ccco3)c(=O)c3ccccc32)c1 | . | 0.6
C[C@@H]1CN([C@@H](C)CO)C(=O)c2cc(NS(=O)(=O)c3cccs3)ccc2O[C@@H]1CN(C)C(=O)Nc1ccc(F)cc1 | -0.9 | 0.8
C[C@H]1CN([C@@H](C)CO)C(=O)c2cc(NC(=O)Cc3cn(C)c4ccccc34)ccc2O[C@@H]1CN(C)C(=O)Nc1ccc2c(c1)OCO2 | 0.1 | -0.9
C[C@H](CO)N1C[C@H](C)[C@@H](CN(C)C(=O)Nc2cccc3ccccc23)Oc2c(NS(=O)(=O)c3ccc(Cl)cc3)cccc2C1=O | . | -4.4

(listing goes on)
SMILES | A1 inhib | BJeLR viability
Cc1noc(C)c1NC(=O)N(C)C[C@H]1Oc2ccc(NS(=O)(=O)c3ccccc3)cc2C(=O)N([C@@H](C)CO)C[C@@H]1C | 0.1 | 5.8
C[C@H](CO)N1C[C@H](C)[C@H](CN(C)Cc2ccccc2)Oc2ccc(NC(=O)NC3CCCCC3)cc2C1=O | -0.4 | -3.3
COc1ccc(N2CCN(C(=O)c3ccc(C#CC4(O)CCCCC4)cc3)CC2)cc1 | -0.3 | -3.5
COc1ccc(CNc2ncn[nH]2)cc1OC | 0.4 | -3.0
COCc1cc(C)nc2sc3c(=O)n(Cc4ccccc4)nnc3c12 | -0.1 | 1.9
C[C@@H]1CN([C@H](C)CO)C(=O)c2cccc(NC(=O)c3nc4ccccc4s3)c2O[C@@H]1CN(C)Cc1ccc(C(F)(F)F)cc1 | . | -0.6
C[C@@H]1CN([C@@H](C)CO)C(=O)c2cc(NC(=O)CCC(F)(F)F)ccc2O[C@H]1CN(C)CC1CCCCC1 | -0.4 | -1.9
CCOC(=O)c1c(C)n(-c2cccc(C)c2)c2ccc(O)cc12 | 0.2 | -4.3
CNC(=S)N1CCN(c2ccccc2OC)CC1 | 0.5 | -0.2
Cc1ccc(S(=O)(=O)N(C)C[C@H]2Oc3ccc(NC(=O)CCCCCC(=O)Nc4ccccc4N)cc3C(=O)N([C@H](C)CO)C[C@@H]2C)cc1 | . | 0.0
COc1ccc(CN(C)C[C@H]2Oc3ccc(NS(=O)(=O)c4ccccc4)cc3C(=O)N([C@H](C)CO)C[C@@H]2C)cc1 | 0.0 | -3.7
Cc1ccc(S(=O)(=O)Nc2cccc3c2O[C@H](CN(C)C(=O)NC2CCCCC2)[C@@H](C)CN([C@@H](C)CO)C3=O)cc1 | . | 2.1
COc1ccc(NC(=O)N(C)C[C@H]2Oc3ccc(NS(=O)(=O)c4ccc(C)cc4)cc3C(=O)N([C@@H](C)CO)C[C@H]2C)cc1 | 0.0 | -7.3
Cc1noc(C)c1NC(=O)Nc1cccc2c1O[C@@H](CN(C)S(C)(=O)=O)[C@@H](C)CN([C@H](C)CO)C2=O | . | -0.1
COc1ccccc1NC(=O)CC(c1ccccc1)c1ccc(C)cc1O (stereo not given) | -0.6 | -0.1
Cc1ncc(CSc2nc3ccc(C(F)(F)F)cc3[nH]2)c(CO)c1O | 0.1 | -0.5
COc1cc2c3c(c1OC)-c1cc(OC(C)=O)ccc1CC3N(C(C)=O)CC2 (stereo not given) | . | -1.4
CCC(=O)Nc1ccc(-c2nc3cccnc3s2)cc1 | -6.6 | 8.5
O=C(c1cnc2ccccn12)C(F)(F)SCc1c(Cl)cccc1Cl | 0.8 | -1.6
COc1ccc(NC(=O)Nc2cccc3c2O[C@@H](CN(C)Cc2ccc4c(c2)OCO4)[C@H](C)CN([C@@H](C)CO)C3=O)cc1 | . | 1.6

A second format for part of the listing above:
> O=C(c1cnc2ccccn12)C(F)(F)SCc1c(Cl)cccc1Cl
- A1 inhib = 0.8
- BJeLR viability = -1.6
> Cc1ncc(CSc2nc3ccc(C(F)(F)F)cc3[nH]2)c(CO)c1O
- A1 inhib = 0.1
- BJeLR viability = -0.5
> Cc1ccc(S(=O)(=O)Nc2cccc3c2O[C@H](CN(C)C(=O)NC2CCCCC2)[C@@H](C)CN([C@@H](C)CO)C3=O)cc1
- A1 inhib = .
- BJeLR viability = 2.1

The list continues.
SMILES | A1 inhib | BJeLR viability
C[C@@H]1CN([C@H](C)CO)C(=O)c2cccc(NC(=O)C3CCOCC3)c2O[C@@H]1CN(C)Cc1ccc(C(F)(F)F)cc1 | . | 3.2
CCC(C)NC(=O)Cc1ccc(OC)cc1 (stereo not given) | 0.5 | 0.5
Cn1c2c(c3ccccc31)C(C)(C)Cc1c-2cnn1-c1ccccc1 | -0.1 | -8.5
COc1ccccc1-n1c(C)nc(=O)c(-c2ccccc2)c1C | -0.7 | 0.3
Cc1ccc(S(=O)(=O)N(C)C[C@H]2Oc3c(NS(=O)(=O)c4cccs4)cccc3C(=O)N([C@@H](C)CO)C[C@@H]2C)cc1 | . | 14
C[C@@H]1CN([C@H](C)CO)C(=O)c2cccc(NC(=O)c3ccncc3)c2O[C@@H]1CN(C)CC1CCCCC1 | . | 0.2
CC(=O)OCc1ccccc1Sc1ccccc1C(=O)Nc1ccccc1 | 0.1 | 4.9
Cc1cc(=O)oc2cc(OCC(N)=O)c(Cl)cc12 | 0.3 | 2.1
O=C1CCC=CC1(O)C(=O)OCc1cccc(O)c1OC1OC(CO)C(O)C(O)C1O (stereo not given) | 0.1 | 2.7
C[C@H](CO)N1C[C@H](C)[C@@H](CN(C)Cc2ccc(C(=O)O)cc2)Oc2c(NS(=O)(=O)c3ccc(F)cc3)cccc2C1=O | . | -0.2

Some of these compounds in order of formula weight, descending:
SMILES | A1 inhib | BJeLR viability
Cc1ccc(S(=O)(=O)N(C)C[C@H]2Oc3c(NS(=O)(=O)c4cccs4)cccc3C(=O)N([C@@H](C)CO)C[C@@H]2C)cc1 | . | 14
O=C1CCC=CC1(O)C(=O)OCc1cccc(O)c1OC1OC(CO)C(O)C(O)C1O (stereo not given) | 0.1 | 2.7
CC(=O)OCc1ccccc1Sc1ccccc1C(=O)Nc1ccccc1 | 0.1 | 4.9

(next part)
SMILES | A1 inhib | BJeLR viability
Cc1nc2sccn2c(=O)c1CCN1CCC(=C(c2ccccc2)c2ccc(F)cc2)CC1 | -0.2 | 3.1
O=c1ccc2ccc(Oc3ncnc4scc(-c5ccc(F)cc5)c34)cc2o1 | 0.6 | -1.3
C[C@@H]1CN([C@@H](C)CO)C(=O)c2cc(NC(=O)CCN3CCOCC3)ccc2O[C@H]1CN(C)C | 0.0 | 0.8
CN(C)/C=C/C(=O)C12CC3CC(CC(C3)C1)C2 | 0.2 | 1.8
O=C(CSc1nc2ccccc2c(=O)n1CCc1ccccc1)NCc1ccco1 | -0.8 | 0.6
NC(=O)C1CCN(C(=S)Nc2ccc(Cl)cc2)CC1 | -0.4 | 1.1
CNC[C@H]1Oc2c(NC(=O)Nc3ccc4c(c3)OCO4)cccc2C(=O)N([C@H](C)CO)C[C@H]1C | . | -0.2
CC(C)NC(=O)N(C)C[C@H]1Oc2ccc(NC(=O)CCN3CCOCC3)cc2C(=O)N([C@H](C)CO)C[C@H]1C | -0.2 | -3.6
COc1ccc(S(=O)(=O)Nc2ccc3c(c2)C(=O)N([C@@H](C)CO)C[C@H](C)[C@H](CN(C)S(=O)(=O)c2ccccc2)O3)cc1 | 0.2 | 1.5
